High-throughput results from PubChem BioAssay.
Beta2AR agonist: human beta-2 adrenergic receptor agonism by FAP | P07550 | response, % (no concentration beside the values) | AID 504454 | Am2.2-beta2AR cells, FAP receptor internalization, flow cytometry; reference of the scale not given here | 0.43% of 340,000 active;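 active = response above a set limit, near 3 SD of response in nonfluorescent compounds, cut at about 42% in these data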;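 note: stock transfer was 100 nL into about 11 µL; a reference agonist was the positive control; negative values mostly stem from fluorescent compounds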
Target sequence (P07550 whole entry, looked up): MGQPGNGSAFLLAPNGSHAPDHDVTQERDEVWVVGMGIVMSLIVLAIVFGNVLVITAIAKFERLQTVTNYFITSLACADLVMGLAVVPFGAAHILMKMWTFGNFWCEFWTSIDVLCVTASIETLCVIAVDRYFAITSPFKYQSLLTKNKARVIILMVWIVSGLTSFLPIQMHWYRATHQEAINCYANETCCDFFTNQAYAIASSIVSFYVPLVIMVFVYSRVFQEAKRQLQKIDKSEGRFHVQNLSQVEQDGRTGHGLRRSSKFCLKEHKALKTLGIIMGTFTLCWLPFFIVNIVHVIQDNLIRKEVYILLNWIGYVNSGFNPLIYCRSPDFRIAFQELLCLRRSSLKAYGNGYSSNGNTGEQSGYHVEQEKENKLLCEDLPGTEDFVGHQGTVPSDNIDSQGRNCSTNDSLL
LANA-H2A inh: blocks KSHV LANA binding to histone H2A/H2B | cell-free LANA-H2A/H2B peptide, fluorescence polarization | Q9QR71 | inhibition, % (test concentration not listed) | 0.6% of 320,000 active; in the data active = inhibition mostly above about 10%, no sharp cut-off; inactive = mostly below about 6.7%;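 note: stock transfer was 7.5 nL into about 10 µL; 0% = median of vehicle wells and 100% = median of positive control wells; one replicate is shown; the record names a cut of 25% in any replicate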
RanGTP-Imp inh: disruptors of Ran-importin-beta complex formation – biochemical, FRET, CFP-Ran, YFP-importin-beta, homogeneous, primary screen; cell-free CFP-Ran/YFP-importin-beta FRET ratio; inhibition, % (test concentration not listed); 1.1% of 300,000 active;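 active = most replicates above 15%; inconclusive = exactly half above 15%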;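 note: 0% = DMSO wells and 100% = Ran loaded with GDP instead of GTP; wells of about 40 µL received 100 nL stock; the first replicate is given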
ALR H2O2 inh: inhibitors of human sulfhydryl oxidase ALR; inhibition, % (test concentration not listed); 3.8% of 290,000 active; AID 485317; P55789; purified ALR, DTT oxidation, H2O2 HRP-luminol luminescence;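 active = mean and each replicate at 75% or more; inconclusive = only one of the two met; inactive = neither met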;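 note: stock transfer was 7.5 nL into about 7.5 µL; 0% = neutral wells and 100% = wells with inactivated enzyme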
Target sequence (P55789 whole entry, looked up): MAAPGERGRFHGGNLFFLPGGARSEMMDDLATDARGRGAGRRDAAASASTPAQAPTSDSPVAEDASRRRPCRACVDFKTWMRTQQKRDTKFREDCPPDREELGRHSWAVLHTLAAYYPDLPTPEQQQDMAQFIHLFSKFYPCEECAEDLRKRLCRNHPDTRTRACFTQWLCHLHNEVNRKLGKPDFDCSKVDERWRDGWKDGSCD
HNF4A DNA FP: change in binding of human HNF4 alpha to DNA; HNF4a-FITC DNA binding, fluorescence polarization, 1 h; activity change, % at 10 µM; 0.3% of 360,000 active; AID 1224865; in the data active = activity change above about 30%, passing the limit was not always enough;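 note: controls were the assay level and a saturating level of protein; the project sought stronger binding though the title names inhibitors; some compounds called inactive have numbers as strong as hits; positive values seem to mean higher polarization but the record does not say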
Target sequence (P41235 whole entry, looked up): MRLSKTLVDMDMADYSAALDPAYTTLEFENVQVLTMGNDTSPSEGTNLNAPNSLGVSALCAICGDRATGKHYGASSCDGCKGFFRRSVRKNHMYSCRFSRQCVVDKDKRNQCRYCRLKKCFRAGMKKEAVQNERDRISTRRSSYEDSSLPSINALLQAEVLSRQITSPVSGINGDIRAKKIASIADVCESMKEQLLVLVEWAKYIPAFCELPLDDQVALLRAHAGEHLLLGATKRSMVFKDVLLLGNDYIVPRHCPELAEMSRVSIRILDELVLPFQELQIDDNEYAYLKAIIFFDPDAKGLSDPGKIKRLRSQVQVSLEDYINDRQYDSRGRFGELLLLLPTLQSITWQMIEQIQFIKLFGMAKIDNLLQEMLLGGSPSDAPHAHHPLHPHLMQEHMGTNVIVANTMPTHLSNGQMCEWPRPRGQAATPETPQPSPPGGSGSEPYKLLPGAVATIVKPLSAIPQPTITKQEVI
Calb FLC: C. albicans growth modulation with fluconazole. growth inhibition, % (test concentration not listed). 0.57% of 300,000 active. C. albicans CaCi-2 (fluconazole-resistant clinical isolate) + fluconazole, Alamar Blue growth, 48 h;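 active = most replicates above 75%; inconclusive = exactly half above 75%; inactive = most below 75%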;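 note: all wells also contain fluconazole at 8 µg/ml as a sub-toxic cotreatment; 0% = median of DMSO wells and 100% = median of geldanamycin control wells; wells of about 8 µL received 7.5 nL stock; the first replicate is given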
Vif TR-FRET: inhibitors of Vif binding to APOBEC3G peptide, primary screen, biochemical, TR-FRET, GST-Vif 1-94, biotin-A3G peptide, dose response retest (AID 1117319) | inhibition, %, or IC50 in µM where a hit was titrated | TR-FRET GST-Vif / biotin-A3G peptide binding; higher % means a stronger effect; test concentration not given here; strong numbers were not always called active | 0.57% of 260,000 active;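 active = above the screen mean plus three standard deviations and confirmed in dose response; inconclusive = results disagree or hit not tested in dose response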;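 note: Vif residues 1-94 fused to GST binding biotinylated APOBEC3G peptide 110-148; 0% = full assay without inhibitor and 100% = GST in place of GST-Vif; retest series ran down from 100 µM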
* = called active by the depositor; ? = inconclusive; · = not tested or not shown.

SMILES	Beta2AR agonist	LANA-H2A inh	RanGTP-Imp inh	ALR H2O2 inh	HNF4A DNA FP	Calb FLC	Vif TR-FRET
CC(=O)c1c(C)[nH]c(C(=O)OCC(=O)Nc2cccc(S(=O)(=O)N(C)C)c2)c1C	5	-2.3	?	·	-1.6	31	5%
CC12c3ccccc3C(c3ccccc31)C1C(=O)N(Cc3cccnc3)C(=O)[C@H]12 (some centres undefined)	0	1.3	-1.6	-29	-2.8	-6	13%
CCOc1ccc(C2NC(=O)c3ccccc3O2)cc1OC (centres undefined)	2	0.9	2.0	-1	4.2	-12	·
CC(=O)Nc1ccc(S(=O)(=O)Nc2ccc3c(c2)CCC3)cc1	17	-3.2	-2.2	1	-2.2	1	·
CC(=O)N1CCN(C(=O)c2ccc(Cl)c(S(=O)(=O)N3CCc4ccccc43)c2)CC1	0	-2.0	·	6	0.9	·	·
O=C1/C(=C/c2ccccc2Cl)SC(=S)N1CCCC(=O)N(CCO)c1ccccc1	-1	4.3	0.6	1	1.8	28	·
CCc1ccc(NC(=O)CCC(=O)Nc2nnc(C(F)(F)F)s2)cc1	7	-0.3	-1.7	-4	0.7	-2	-9%
CN(O)/C=C/C(=O)c1ccc(Br)cc1	0	-2.1	-1.1	-10	-0.5	-22	·
NC(=O)NC(=O)CSc1nnc(-c2ccc(Cl)cc2)n1CC1CCCO1 (centres undefined)	7	-0.8	2.5	0	2.2	3	-5%
O=C(NC1CC2CCCC(C1)N2C(=O)Nc1ccccc1F)C1CC1 (centres undefined)	6	2.0	-1.8	3	-0.7	-1	·
CCCCC1OC2(C)OC(=N)C1(C#N)C(C#N)(C#N)C2c1ccccc1 (centres undefined)	0	9.9	·	-22	-4.6	·	·
CCCCc1ccc(NC(=O)COCC)cc1	12	-2.6	-1.0	-7	0.8	-4	31%

Two neighbouring compounds from above, for reference:
SMILES	Beta2AR agonist	LANA-H2A inh	RanGTP-Imp inh	ALR H2O2 inh	HNF4A DNA FP	Calb FLC	Vif TR-FRET
CC(=O)Nc1ccc(S(=O)(=O)Nc2ccc3c(c2)CCC3)cc1	17	-3.2	-2.2	1	-2.2	1	·
CC(=O)N1CCN(C(=O)c2ccc(Cl)c(S(=O)(=O)N3CCc4ccccc43)c2)CC1	0	-2.0	·	6	0.9	·	·

Continuation:
SMILES	Beta2AR agonist	LANA-H2A inh	RanGTP-Imp inh	ALR H2O2 inh	HNF4A DNA FP	Calb FLC	Vif TR-FRET
CC1CCCCN1Cc1ccc(N)cc1 (centres undefined)	-8	2.7	-0.4	-11	4.3	-4	-2%
O=C(O)c1ccc(NS(=O)(=O)/C=C/c2ccccc2)cc1O	2	2.7	-3.8	6	3.5	-12	27%
Cc1ccccc1-c1nc2cc(NC(=O)C3CC3)ccc2o1	-10	2.6	-0.4	-11	3.2	-3	-8%
CCCCN(C)CCCNC(=O)CN1C(=O)COc2ccc(S(=O)(=O)N3CCOCC3)cc21	1	·	-1.3	-14	1.2	-2	·
COC(=O)c1ccc(CNC(=O)COC(=O)CCC(=O)c2ccc(F)cc2)cc1	0	-2.4	·	-7	0.9	·	·
CC(C)CN(C(=O)CCC(=O)OCC(=O)c1ccc(F)c(F)c1)c1c(N)n(CC(C)C)c(=O)[nH]c1=O	7	2.9	-5.9	0	2.3	-4	-4%
COc1ccc(N(CN2C(=O)c3ccccc3C2=O)C(=O)COc2ccc(Cl)cc2Cl)cc1	-7	0.2	2.2	-4	-1.4	7	-1%
CC(C)(C)c1ccc(O)c(/C=N\O)c1	-6	-6.3	5.8	-2	6.1	3	?
COc1ccc(CCC(C)Nc2ccccc2F)cc1 (centres undefined)	7	0.5	-1.0	31	1.9	9	-4%
COc1ccccc1C(=O)N/N=C(\C)CC(=O)Nc1ccc2c(c1)OCCO2	2	6.9	-2.1	·	3.3	1	3%
CC(C)C(=O)Nc1ccc(C(=O)N2CCCCCC2)cc1	-9	2.4	-3.3	-15	0.8	1	-1%
Cc1c(C(=O)O)sc(S(=O)(=O)N2CCN(C(=O)CCc3ccccc3)CC2)c1C(=O)O	-5	·	·	·	-2.4	·	2%
C=CCOc1ccc(Br)cc1CNCCO	6	-5.1	2.8	4	2.0	4	·
CCNc1nc(NCC)n2c(SC(C(=O)Nc3cc(C)ccc3C)c3ccccc3)nnc2n1 (centres undefined)	-11	5.5	-0.1	-5	-4.7	7	6%
Cc1cc(C)nc(SC2CCCCC2NS(=O)(=O)c2ccc(Cl)cc2)n1 (centres undefined)	-27	-5.8	-2.0	-6	2.6	-4	·
O=C(CSc1nnc2ccccn12)Nc1nsc(-c2ccccc2)n1	-9	1.7	?	-1	1.2	-5	9%
CC1CC(C)CN(C(=O)CCCn2c(=S)[nH]c3ccccc3c2=O)C1 (centres undefined)	-8	-1.0	1.2	96*	0.3	0	1%
O=C1COc2ccc(C(=O)COC(=O)CCSc3ccc(Cl)cc3)cc2N1	-1	-1.3	1.5	-2	-3.3	-7	·
CC(C)(C)c1ccc(OCCCNCc2ccccc2)cc1	15	2.6	2.0	·	-0.8	-13	·
CCOc1ccccc1NC(=O)CN1C(=O)CSC(C)C1=O (centres undefined)	-3	·	?	·	3.1	6	-3%
Cc1ccc(C)c(-c2nnc(NC(=O)Cc3ccc(F)cc3)o2)c1	7	-0.6	-6.6	-19	3.2	0	1%
O=C(N=C1SC2CS(=O)(=O)CC2N1c1ccc(F)c(Cl)c1)C1CCCO1 (centres undefined)	8	6.2	2.4	-7	0.5	-4	-10%
CC(Sc1cccc[n+]1[O-])C(=O)Nc1cccc(S(=O)(=O)N2CCOCC2)c1 (centres undefined)	-1	0.0	0.2	97*	1.6	1	-3%
COc1ccc2c(c1)c(C(C)=O)c(C)n2C	-2	-1.6	1.1	·	-3.9	-1	-2%
Cc1csc2nc(CNS(=O)(=O)c3ccc4c(c3)CCCC4)cn12	-4	2.2	3.5	-9	2.1	1	-2%
COc1ccc(OC)c(-c2nc3ccccc3nc2-c2ccccc2)c1	-14	-1.0	-3.7	·	-3.4	-3	·
Cc1nc(CCNC(=O)C2CCC(=O)N(Cc3ccc(Cl)cc3)C2)sc1C (centres undefined)	-1	·	2.1	·	0.9	-3	·
COc1ccc(C(O)c2nccn2Cc2ccccc2)cc1 (centres undefined)	-4	1.8	2.5	-11	-5.9	-10	3%
COc1ccc(CC(=O)Nc2ccc3c(c2)CCC3)cc1	-8	4.6	2.8	·	-2.5	-5	·
COCCCNC(=O)C1CC(=O)N(CCc2ccc(F)cc2)C1 (centres undefined)	1	1.2	-1.5	0	1.3	2	3%
COC(=O)c1c(C(=O)OC)c2cccc3cc(-c4ccccc4)c4ccc1c4n32	2	-1.2	1.1	-11	-6.0	-7	?
O=C(NCc1cccc(F)c1)C1CCC(=O)N(C2CCCC2)C1 (centres undefined)	-7	-4.0	-0.1	-4	0.2	4	·
CC(C)C[C@H]1CNC(=S)N1CC1CCN(CCCCc2ccccc2)CC1	-11	·	·	·	5.4	·	7%
O=C(NCc1ccccc1Cl)c1cccc2c1C(=O)c1ccc(-c3ccc(OC(F)(F)F)cc3)cc1S2(=O)=O	-2	5.6	·	4	2.6	·	·
COc1ccc(/C=C2\SC(=S)N(CCC(=O)NCCCN3CCOCC3)C2=O)cc1	2	2.0	8.4	·	1.8	-6	8%
Cc1cc(N2CCN(Cc3ccc4c(c3)OCO4)CC2)n2ncnc2n1	0	-4.0	?	10	0.6	-2	-6%
CCOC(=O)Cc1nnc(NC(=O)CSc2nnc3c4ccccc4n(C(C)C)c3n2)s1	-2	0.4	-0.7	-4	3.0	6	-5%
CC1NC(=S)N(Cc2ccccc2)C1=O (centres undefined)	-3	0.9	5.5	20	1.0	0	-4%
Cc1ccc2nc(C(=O)N3CCc4c([nH]c5ccccc45)C3c3ccccn3)cn2c1 (centres undefined)	-4	-5.4	?	-3	-1.8	72	1%
CC(C)(C)NC(=O)C(c1ccncc1)N(Cc1cccs1)C(=O)c1csnn1 (centres undefined)	0	7.0	-3.1	-2	-3.0	-1	24%
CCOC(=O)C1CCN(C(=O)/C=C/c2cc(OC)c(OC)c(OC)c2)CC1	1	-1.5	6.9	-13	1.3	10	·
CCOc1cc(S(=O)(=O)n2c(C)nc3ccccc32)ccc1F	1	2.0	5.1	2	2.7	-6	-9%
CC(C)c1ccc(C(=O)CSc2n[nH]c(-c3ccncc3)n2)cc1	-1	-4.7	-1.3	0	0.8	28	4%
CCOC(=O)c1cc(-c2ccc(C)o2)nn1CCC#N	5	2.6	3.8	4	2.9	-3	1%
Clc1ccc2nc(CSCc3ccccc3)cn2c1	-9	0.1	5.4	-33	4.7	-11	-3%
CCc1cc2c(NCCC(=O)O)ncnc2s1	22	3.0	-2.0	-4	0.8	4	-6%
O=C(COc1ccc(Cl)cc1)NCc1nnc(SCC(=O)NC2CCCCC2)o1	-4	-4.4	-1.8	-6	0.0	1	-2%
Cc1cc(Cl)ccc1OCCCC(=O)N1CCCc2ccccc21	-4	-2.3	?	-2	-2.5	9	1%
O=C(Nc1nc2ccccc2[nH]1)c1cc2ccccc2o1	-1	1.0	-0.4	-2	7.8	10	·
COc1ccc2c(c1)C(C)=CC(C)(C)N2C(=O)CN1C(=O)CCC1=O	-3	-3.2	1.4	-2	-1.5	-14	7%
Cn1c(Cc2ccccc2)nnc1SCCC(=O)Nc1ccccc1	-2	-0.4	3.5	·	-3.1	-8	1%
NC(=O)C1CCN(C(=O)COc2cccc3cccnc23)CC1	2	2.6	-1.5	-15	1.9	-4	·
Cc1ccc(C)c(N2CCN(C(=O)c3csc(C)c3C)CC2)c1	3	1.5	-2.9	3	-1.9	-1	-2%
Cc1nc2nc(-c3cccs3)[nH]c2cc1Br	-7	-0.6	-1.4	-6	0.9	-10	·
NC(=O)C1CCN(c2nc(-c3ccccc3F)cs2)CC1	-1	4.5	·	44	-1.1	·	·
CCCCn1c(N)c(N(CC)C(=O)C2=COCCO2)c(=O)[nH]c1=O	-3	1.8	1.4	7	-2.4	-2	-11%
C/C(=N\OC(=O)c1ccc(Cl)cc1)c1sc(-c2ccccc2)nc1C	-6	2.0	5.0	-7	-1.5	-21	4%
Cc1[nH]nc2c1C1(CCN(C(=O)c3ccccc3)CC1)C(C#N)=C(N)O2	3	0.7	0.8	52	1.4	-1	7%
CCCCn1c(N)c(N(CC(C)C)C(=O)c2ccc(N3C(=O)CCC3=O)cc2)c(=O)[nH]c1=O	0	-6.0	-4.2	0	-1.9	15	-3%
COc1ccc(C(C)=O)cc1CSc1nnc(-c2ccc(Cl)cc2)n1-c1ccccc1	3	0.0	0.9	-2	-1.4	1	-17%
(cont.)
SMILES	Beta2AR agonist	LANA-H2A inh	RanGTP-Imp inh	ALR H2O2 inh	HNF4A DNA FP	Calb FLC	Vif TR-FRET
Cc1ccc(C(=O)c2c3ccc(C(F)(F)F)cc3nn2CCC(N)=O)cc1	-4	-3.6	3.3	-22	-4.0	37	·
CCSc1oc(-c2ccccc2)nc1S(=O)(=O)c1ccccc1	6	2.5	0.9	-3	4.0	-11	-1%
COc1ccc(C(=O)Nc2cc3c(cc2Cl)OCCCO3)cc1	4	-1.2	1.6	-2	-1.3	5	5%
O=C(CNS(=O)(=O)c1cccc2nsnc12)NCCc1ccccc1	-12	-3.5	3.2	-6	3.1	0	-6%
Cc1nn(-c2ccc(N3CCCCC3)nn2)c(C)c1CCC(=O)Nc1cccc(F)c1	-10	-7.1	0.6	-1	3.2	2	·
Nc1nc(N)nc(-c2cccc(Br)c2)n1	40	·	·	·	2.0	·	-7%
CC(C)(C)c1ccc(C(=O)Nc2nonc2-c2nc3ccccc3[nH]2)cc1	-8	-4.6	-1.1	-2	6.1	6	?
O=C(Nc1ccccc1)C1=C[C@@H](C2CCCCC2)C[C@@H](OCc2ccc(CO)cc2)O1	-13	-0.4	1.1	·	3.7	-14	·
COc1ccc(/C=C/C(=O)Nc2cccc(C(C)=O)c2)cc1	-11	-0.2	?	-2	0.1	0	·
